# Screening results from PubChem.
# Rango dissoc inh: qHTS Assay for Inhibitors of RanGTP induced Rango (Ran-regulated importin-beta cargo) - Importin beta complex dissociation; actives 0.071% (n = 340,000); Biochemical FRET Rango-importin beta, RanGTP-induced dissociation; Potency, µM (series often up to 46.1 µM), without a hit: at the highest dose activity change, negative = inhibition; active means falling FRET ratio curve, often poorly fitted, with flat reads before Ran was added; inconclusive means other falling curves, or compound fluorescence or quenching; inactive means flat or rising ratio curve;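 note: potency is the fitted concentration of half-maximal effect; % of control where 0% means no effect; nearly all actives have a fitted effect of over 45% in size; -100% = wells without RanGTP and RCC1; the record marks most hits as doubtful in a second field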
#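 Rango/importin beta premix (0.1/0.25 uM final), PBS + 1 mM DTT + 0.02% Tween-20 + 0.1% BSA; cpd 5 min RT; FRET pre-read; + RanGTP-RCC1 (0.6 uM Ran, 2 mM GTP, 0.2 uM RCC1); 45 min RT; FRET post-read, ex 430, em 486/530 nm.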
# miR-21 FLuc: qHTS Assay for Modulators of miRNAs and/orActivators of miR-21 | HeLa miR-21 FLuc reporter, luciferase, 48 h | Potency, µM (series often up to 38.3 µM), for the others: at the top dose reporter change, positive = more light | 340,000 tested, under 10 active | AID 2288, 2010; active = well fitted rising curve with a large enough effect; inconclusive = small, poorly fitted or top-dose-only effect; inactive = no such curve, though single readings can be large or run the other way;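 note: % of control where 0% means no effect; miR-21 action dims this reporter so a rising signal means less miR-21 action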
#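 Using DMEM plus 10% FBS, HeLa miR-21-FLuc cells are incubated with test compounds (final up to about 40uM) for 48 hours; firefly luciferase signal is then imaged following reagent-mediated lysis.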
# Rango complex inh: qHTS Assay for Inhibitors of Rango (Ran-regulated importin-beta cargo) - Importin beta complex formation; Importin subunit beta-1 (Homo sapiens), Q14974; Rango CFP/YFP FRET sensor + importin beta, 45 min; Potency, µM (series often up to 92.2 µM), for the others: at the highest dose inhibition of complex formation; actives 0.031% (n = 340,000); AID 540263, 2011; active = rising FRET ratio curve, often small or poorly fitted; inconclusive = mostly compound fluorescence or quenching in the first reads; inactive = flat curves in all reads;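 note: potency is the fitted concentration of half-maximal effect; 0% = DMSO wells and 100% = buffer wells lacking importin beta; nearly all actives have a fitted effect of over 15% in size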
#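 FRET biosensor Rango (snurportin 1 IBB between N-terminal EYFP and C-terminal Cerulean), 50 nM in PBS/1 mM DTT/0.02% Tween-20/0.1% BSA, preincubated 5 min RT with compound; 0.125 microM importin beta added, 45 min RT, CFP/YFP FRET ratio read.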
# GLA inh pH 4.5: qHTS Assay for Inhibitors of Human alpha-Galactosidase at pH 4.5; activity change, negative = inhibition, % at 105 µM; 230,000 tested, under 10 active; purified enzyme, 4-MU-alpha-Gal fluorescence, pH 4.5; inconclusive = small, poorly fitted or top-dose-only inhibition, or a rising curve; inactive = flat fitted curve, though single readings scatter; no compound was filed as active;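 note: 0% = full activity with enzyme and -100% = basal without enzyme; dose as in the result columns while the protocol names 77 µM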
# Target sequence (P06280 whole entry, looked up): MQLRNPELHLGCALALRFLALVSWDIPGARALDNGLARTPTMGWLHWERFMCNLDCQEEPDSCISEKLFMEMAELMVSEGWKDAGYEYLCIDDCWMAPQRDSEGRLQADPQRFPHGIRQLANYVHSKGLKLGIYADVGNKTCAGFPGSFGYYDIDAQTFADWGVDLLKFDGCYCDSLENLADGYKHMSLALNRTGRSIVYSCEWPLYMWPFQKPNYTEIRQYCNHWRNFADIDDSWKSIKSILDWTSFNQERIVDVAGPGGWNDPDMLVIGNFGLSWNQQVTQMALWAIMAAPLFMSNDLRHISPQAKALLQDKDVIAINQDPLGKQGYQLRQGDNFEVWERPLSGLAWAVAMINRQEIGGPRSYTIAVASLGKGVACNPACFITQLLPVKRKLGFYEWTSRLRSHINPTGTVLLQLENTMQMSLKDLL
# An asterisk follows results filed as active; ? = inconclusive; nt = no result given. A portion of the library (hit frequency here may not be typical).
SMILES,Rango dissoc inh,miR-21 FLuc,Rango complex inh,GLA inh pH 4.5
CC(N)C12CC3CC(C1)CC(C(C)N)(C3)C2 (centres undefined),-1%,-4%,?,-17
COc1ccc(NC(=O)CSc2nc(N)c(-c3ccccc3)c(=O)[nH]2)cc1,-5%,11%,-1.3%,3
Cc1ccc(-c2nnc(Nc3ccccc3)c3ccccc23)cc1S(=O)(=O)NCC1CCCO1 (centres undefined),5%,12%,?,7
COc1ccc(NC(=O)COC(=O)Cn2cnc3ccccc32)cc1,13%,nt,0.3%,nt
COc1ccccc1N(C(=O)c1csnn1)C(C(=O)NC1CCCC1)c1ccccc1 (centres undefined),25%,8%,3.8%,nt
CN(C)CCCN1c2ccc3ccccc3c2Sc2cccc(Cl)c21,?,nt,?,nt
COc1ccccc1Nc1nc(N)nc(-c2cc3ccccc3o2)n1,1%,-39%,6.3%,4
COc1ccc(C(=O)c2cn[nH]c2-c2cc(Cl)ccc2O)cc1,5%,8%,6.3%,6
Cc1ccnc(NS(=O)(=O)c2ccc(NS(=O)(=O)Cc3ccccc3)cc2)n1,23%,-1%,3.1%,-3
CCc1ccc(NC2=CC(=O)CC(c3ccco3)C2)cc1 (centres undefined),-16%,-12%,8.0%,4
C[C@H](CO)N1C[C@H](C)[C@@H](CN(C)C(=O)Nc2ccccc2)Oc2c(NS(=O)(=O)c3ccc(F)cc3)cccc2C1=O,17%,nt,0.1%,nt
O=C(CSc1nnnn1C1CCCCC1)Nc1ccc(F)cc1,-2%,4%,-0.2%,7
Cc1ccc(NC(=O)Cc2nn(C)c(=O)c3ccccc23)cc1F,-2%,-3%,?,-4
CCCOC(=O)C1=C(C)NC2=C(C(=O)CCC2)C1c1cccc(OC)c1OC (centres undefined),?,-3%,?,2
CCOC(=O)N1CCN(C(=O)/C(=C\c2ccc(SC)cc2)NC(=O)c2ccccc2)CC1,-7%,7%,1.5%,-7
O=C(C1CC1)N1CCc2cc(S(=O)(=O)NCc3ccccc3)ccc21,-6%,-17%,1.9%,nt
CCC(C)(C)C1CCc2c(sc(N)c2C(N)=O)C1 (centres undefined),-6%,16%,0.9%,2
O=C(Nc1cccc(Cl)c1)Nc1ccccc1C(=O)NCc1ccco1,17%,-3%,-3.3%,-5
CCCCCc1nnc(NC(=O)c2ccc3nc[nH]c3c2)s1,-14%,nt,0.1%,nt
Cc1ccc(OCc2nnc(SCC(=O)Nc3cccc4ccccc34)n2-c2ccccc2)cc1,10%,18%,0.6%,7
O=C(O)c1nn(Cc2ncc(-c3cccc(Cl)c3)o2)c(=O)c2ccccc12,-9%,0%,0.4%,nt
CCOc1cc(/C=N/NC(=O)N/N=C/c2ccc(O)c(OCC)c2)ccc1O,-4%,nt,0.1%,nt
COc1ccc(CCN2C(=O)CC(NNC(=O)c3ccccc3Br)C2=O)cc1 (centres undefined),-20%,-14%,-5.9%,3
COC(=O)c1ccncc1C(=O)Nc1ccc(Oc2ncc(C(F)(F)F)cc2Cl)cc1,-9%,-3%,-2.9%,nt
CCOC(=O)CN(C(=O)CSc1nnc(Cc2ccccc2)n1-c1ccc(C)cc1)c1ccccc1,0%,10%,-1.2%,-10
Cc1cccc(C)c1OCc1cn(CC(=O)c2ccc(O)cc2)nn1,-10%,nt,-0.5%,nt
CCn1c2ccccc2c2nc3cc(S(=O)(=O)N4CCOCC4)ccc3nc21,-29%,-3%,?,-3
COc1cccc(C(=O)Nc2cnn(C(C)C)c2)c1,0%,-42%,?,-3
CSc1nn2c(C(F)(F)F)cc(C(F)(F)F)nc2c1C(=O)O,-7%,1%,4.6%,0
Cn1c(CCNC(=O)C2CCCCC2)nc2cc(NC(=O)c3cccs3)ccc21,-4%,-5%,3.2%,?
O=C(CSc1ccccc1)Nc1cc(Cl)ccc1Oc1ccccc1,-10%,-6%,0.8%,3
CSc1ccc(/C=C/C(=O)OCC(=O)NC2CCS(=O)(=O)C2)cc1 (centres undefined),-11%,nt,3.5%,nt
CC(C)(C)OC(=O)NCCCCCNC(=O)c1nc[nH]c1C(=O)N1CCN(C(=O)OC(C)(C)C)CC1,-7%,nt,4.7%,nt
O=C(CSc1n[nH]c(=O)n1Cc1ccco1)c1ccc2c(c1)OCCO2,1%,-19%,-0.8%,nt
Cc1ccc2nc(C(O)C(O)c3nc4ccc(C)cc4[nH]3)[nH]c2c1 (centres undefined),6%,-47%,-0.1%,-1
Cc1ccc(Nc2nc(-c3ccc(F)cc3)cs2)nc1,-10%,-43%,1.4%,nt
O=[N+]([O-])c1c(-c2cn[nH]c2)n[nH]c1-c1cn[nH]c1,5%,6%,2.8%,-15
Cc1ccc2c(c1)Oc1ccc(NC(=O)CCl)cc1C(=O)N2,0%,?,-0.8%,-1
S=C1NC2(CCCCC2)Cc2ccccc21,-14%,-6%,3.5%,-8
CCOc1ccc(NC(=O)CSc2nnc(C3CC3)n2C)cc1S(=O)(=O)N1CCCCC1,7%,nt,0.9%,nt

# In another format: entries from further up
CCn1c2ccccc2c2nc3cc(S(=O)(=O)N4CCOCC4)ccc3nc21
  Rango dissoc inh: -29%; miR-21 FLuc: -3%; Rango complex inh: ?; GLA inh pH 4.5: -3

COc1cccc(C(=O)Nc2cnn(C(C)C)c2)c1
  Rango dissoc inh: 0%; miR-21 FLuc: -42%; Rango complex inh: ?; GLA inh pH 4.5: -3

CSc1nn2c(C(F)(F)F)cc(C(F)(F)F)nc2c1C(=O)O
  Rango dissoc inh: -7%; miR-21 FLuc: 1%; Rango complex inh: 4.6%; GLA inh pH 4.5: 0

Cn1c(CCNC(=O)C2CCCCC2)nc2cc(NC(=O)c3cccs3)ccc21
  Rango dissoc inh: -4%; miR-21 FLuc: -5%; Rango complex inh: 3.2%; GLA inh pH 4.5: ?

# In another format: entries from further up.
O=[N+]([O-])c1c(-c2cn[nH]c2)n[nH]c1-c1cn[nH]c1
  Rango dissoc inh: 5%
  miR-21 FLuc: 6%
  Rango complex inh: 2.8%
  GLA inh pH 4.5: -15
Cc1ccc2c(c1)Oc1ccc(NC(=O)CCl)cc1C(=O)N2
  Rango dissoc inh: 0%
  miR-21 FLuc: ?
  Rango complex inh: -0.8%
  GLA inh pH 4.5: -1

# Next results
SMILES,Rango dissoc inh,miR-21 FLuc,Rango complex inh,GLA inh pH 4.5
Cc1cc(C)n(CCN(C)C(=O)C2CCC(=O)N(CCc3cccc(F)c3)C2)n1 (centres undefined),7%,0%,0.6%,nt
COC(=O)/C=C(\Oc1ccccc1)C1(O)CCCCC1,-6%,0%,0.4%,-2
CC(C)CCN1CCN(Cc2cccn2-c2ccc(Cl)cn2)CC1CCO (centres undefined),0%,-3%,0.5%,-8
Cc1cccc(NC(=O)CSc2nnc(CNC(=O)c3ccco3)n2C)c1,26%,-5%,-3.9%,nt
C/C(CC(=O)Nc1ccc(N(C)C)cc1)=N\NC(=O)c1ccc(Cl)cc1Cl,0%,-30%,-4.1%,nt
COc1ccc(C2=NOC(C(=O)Nc3ccc4c(c3)OCO4)C2)cc1 (centres undefined),9%,-8%,-0.5%,nt
O=C(O)C1=C[C@H](c2ccc(C(F)(F)F)cc2)C[C@H](OCc2ccc(CO)cc2)O1,-11%,-4%,-0.9%,7
CN(CC(=O)NC1CCCCCCC1)S(=O)(=O)c1cccc2cccnc12,14%,-16%,-0.3%,0
CC(C)CC1=NN(C(=O)c2ccncc2)C(O)(C(F)(F)F)C1 (centres undefined),-4%,-8%,?,7
CC(C)N1CCN(Cc2ccc(-c3ccccc3)cc2)CC1CCO (centres undefined),-2%,0%,0.6%,nt
COc1ccc(N(C=O)C(C(=O)Nc2c(C)cccc2C)c2ccccc2)cc1 (centres undefined),-8%,nt,-1.1%,nt
O=C(O)CC(NC(=O)C12CC3CC(CC(C3)C1)C2)c1cccc([N+](=O)[O-])c1 (centres undefined),-13%,4%,3.8%,-2
O=S(=O)(/N=C(/Nc1cccnc1Cl)c1ccccc1)c1ccccc1,9%,nt,0.0%,nt
CC1Cc2ccccc2N1C(=O)Cn1c(=O)oc2cc(S(=O)(=O)NC3CCCC3)ccc21 (centres undefined),13%,10%,-0.3%,-11
CCOc1cc(S(=O)(=O)N2CCN(c3ccc(F)cc3)CC2)c(OCC)cc1-n1cnnn1,10%,-2%,1.8%,-5
Cc1[nH]c2ccccc2c1C(=O)C(=O)Nc1ccc2c(c1)OCCO2,-2%,-53%,-3.2%,nt
O=C1c2ccccc2N2C(=O)c3ccccc3[C@H]2N1c1ccccc1,0%,11%,4.4%,-6
CSc1cccc(NC(=O)C2CCN(S(=O)(=O)c3cnc[nH]3)CC2)c1,22%,2%,0.4%,nt
O=C(Nc1cccc(-c2nc3ncccc3o2)c1)c1cc2ccccc2o1,-9%,0%,-1.6%,-18
O=C(CN(C(=O)c1csnn1)c1ccccc1F)NC1CCCCC1,5%,-2%,-0.2%,nt
COc1ccc(F)c(CN2CCCC(CNS(=O)(=O)c3cccc4cccnc34)C2)c1 (centres undefined),17%,-2%,2.4%,nt
CC(=O)N1CC(C)Sc2ccc(S(=O)(=O)N3CCCCC3)cc21 (centres undefined),-3%,11%,0.0%,nt
CC(Sc1nnc(Cn2c(=O)sc3ccccc32)n1C)c1ccccc1 (centres undefined),-18%,-8%,-3.6%,-7
O=C(Nc1ccccc1C(=O)NCc1ccccc1)c1ccccc1Br,0%,6%,-0.9%,-7
CC(=O)c1ccccc1OCCOc1ccccc1C(C)=O,1%,-5%,-0.4%,nt
CCCN(CC(=O)Nc1ccc(NC(C)=O)cc1)CC(=O)Nc1ccc(F)c(F)c1F,0%,1%,4.7%,nt
CCOc1ccc(N2C(=O)CC(n3nc(C)cc3C)C2=O)cc1 (centres undefined),35%,1%,-0.4%,-6
CC1=C(C)CC(C(=O)NCCc2ccccc2)C(C(=O)O)C1 (centres undefined),-13%,-3%,-0.9%,-1
O=C(Nc1ccccc1N1CCCC1)c1cc(=O)[nH]c2ccccc12,-11%,nt,-1.6%,nt
CC(C)(C)c1ccc(-c2nc(O)c(CC(=O)O)s2)cc1,nt,-20%,nt,-5
CCNC(=O)COc1cccc(C(=O)NCc2ccccc2)c1,0%,-5%,-0.1%,0
Cc1ccc(C(C(=O)NC2CCCC2)N(C(=O)Cc2cccs2)c2ccc3c(c2)OCCO3)cc1 (centres undefined),14%,1%,-0.2%,5
O=C(CN1C(=O)c2cccc3cccc(c23)C1=O)N1CCN(Cc2ccc3c(c2)OCO3)CC1,14%,10%,-0.7%,2
CCN(C(=O)CCS(=O)(=O)c1ccc(Br)cc1)c1ccc2c(c1)OCO2,6%,-8%,-0.4%,-5
COc1ccc(-n2c(SCCC(=O)O)nnc2-c2ccncc2)cc1,6%,-7%,-2.7%,-3
O=C(c1nc2ccccn2c1CNCC1OCCc2ccccc21)N1CCOCC1 (centres undefined),-18%,0%,-0.3%,7
CCc1ccc(S(=O)(=O)N2CCN(C(=O)c3cccnc3)CC2)cc1,25%,-1%,-1.5%,nt
COc1cccc(CNCc2ccccc2Br)c1OC,7%,-17%,0.2%,nt
COc1cc(/C=N/Nc2nncn2/N=C/c2ccc(O)c(OC)c2)ccc1O,-13%,-22%,?,-3
C=CCC(NC(C)c1ccccc1)c1ccco1 (centres undefined),-4%,1%,2.5%,-4
COc1ccccc1CN1CC(C(=O)N2CCC(C(=O)c3ccccc3)CC2)CCC1=O (centres undefined),22%,-15%,6.3%,nt
O=S(=O)(/N=C(/Nc1cccc2ccccc12)c1ccccc1)c1ccc(Br)cc1,6%,-7%,-0.9%,nt
COc1ccccc1N(C(=O)CNC(=O)c1ccco1)C(C(=O)NC1CCCCC1)c1ccncc1 (centres undefined),14%,-3%,-0.2%,nt
CCOC(=O)CC(NS(=O)(=O)c1ccc(OC)c(OC)c1)c1cccc([N+](=O)[O-])c1 (centres undefined),1%,1%,-2.9%,-3
CC(C)c1ccc(C(=O)NCCCN2CCN(CCCNC(=O)c3ccc(C(C)C)cc3)CC2)cc1,-11%,23%,5.6%,-7
